SmPrx2 inh: inhibitors of Schistosoma mansoni peroxiredoxin 2; S. mansoni Prx2 activity coupled to TGR/GSH (TGR is thioredoxin glutathione reductase), NADPH fluorescence loss, qHTS; some inactives read as strong as hits; Potency, µM; 65,000 tested, 0.07% active; AID 448; active means full or partial inhibition curve with a strong effect at the top dose; inconclusive means weaker partial or single-point curve; inactive means no accepted curve; further: series up to 57 µM; many of its hits are not listed in these tables
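Enzyme mix: 100 uM NADPH, 25 nM TGR, 700 uM GSH, 50 nM Prx2 in 100 mM phosphate pH 7.4, 10 mM EDTA, 0.01% Tween-20. 15 min RT with compound; NADPH/GSH added, H2O2 starts reaction; NADPH fluorescence read 8 min.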
LT uptake inh: anthrax lethal toxin internalization inhibition; Cells, anthrax lethal toxin internalization, FRET ratio (460/530); Potency, µM (highest dose often 40 µM), inactives show at the top dose activity change, negative = inhibition, most hits filed as inhibitors; 70,000 tested, 0.67% active; AID 912; active = well fitted falling ratio curve with the 530 nm signal flat; inconclusive = other ratio curves, or a change in one channel alone; inactive = flat curves in the ratio and both channels; the % refers to the ratio; further: on the % scale 0 is the no-effect control and ±100 the full control effect; nearly all actives have a fitted effect of over 50% in size; tested in ME-180 cells; beta-lactamase reporter
* hit, by the source's call; & = joins results of further samples; [ ] = another dose, or the depositor's remark. Potency means the concentration at half of the fitted maximal effect. This is a subset. The share of hits here may be higher or lower than overall.

For Cc1sc(NC(=O)c2ccco2)nc1-c1ccc2c(c1)CC(C)N2C(=O)C1CC1 (centres undefined) the results were SmPrx2 inh >57 and LT uptake inh 10µM*.
Screening O=C(NC1CCCCCC1)C1CCCN1S(=O)(=O)c1cccc2cccnc12 (centres undefined) returned SmPrx2 inh >57 and LT uptake inh -1%.
COC(=O)CN1C(=O)C2(C(C#N)=C(N)Oc3c2c(C)nn3-c2ccccc2)c2ccccc21 (centres undefined) was read as SmPrx2 inh >57 and LT uptake inh 0%.
Screening O=C(COc1ccc(S(=O)(=O)NC2CCCCC2)cc1)Nc1ccc2c(c1)OCCO2 returned SmPrx2 inh >57 and LT uptake inh inconclusive.
CCN1C(=O)[C@H]2[C@H]3[C@H](O)[C@H](O)C/C(=N/O[C@@H](C)c4cc(-c5c(C)cc(C)cc5C)no4)[C@@H]3CC[C@@H]2C1=O was read as LT uptake inh -13%[1.6 µM].
`O=c1cccccc1NCc1ccccc1` gave LT uptake inh 8%.
`Cc1cccc(N2CC34C=CC(O3)C(C(=O)O)C4C2=O)c1` (centres undefined) gave SmPrx2 inh >57 and LT uptake inh -1%.
For CCn1cc(C(=O)Nc2cccc(C(=O)OC)c2)c(=O)c2ccc(C)nc21 the results were SmPrx2 inh >57 and LT uptake inh -4%.
CCCc1cc(C(=O)Nc2sc(C)c(C)c2C(=O)OCC)no1 was read as SmPrx2 inh >57 and LT uptake inh inconclusive.
O=C(NCCN1CCOCC1)c1cc(S(=O)(=O)NCCCN2CCCC2=O)ccc1Cl was read as SmPrx2 inh >57 and LT uptake inh 19%.
For C=CCn1c(Sc2nncn2C)nc2c1c(=O)[nH]c(=O)n2C the results were SmPrx2 inh >57 and LT uptake inh inconclusive.
`COc1ccccc1N1CCN(CCCNc2c(C)c(=O)n(C)c(=O)n2C)CC1` gave SmPrx2 inh >57 and LT uptake inh 0%.
`Cc1ccccc1C1CC(c2ccccc2)Nc2ncnn21` (centres undefined) gave SmPrx2 inh >57 and LT uptake inh -23%.
For OC1CCCCC1 the results were LT uptake inh -14%.
COc1ccc(NC(=O)CN2CC(c3ccccc3)CC2=O)cc1OC (centres undefined) was read as SmPrx2 inh >57 and LT uptake inh 1%.
Cc1cnc(C(=O)Nc2cccc(-c3nnc4n3CCCCC4)c2)cn1 was read as SmPrx2 inh >57 and LT uptake inh 5%.
Screening CC1CCCCN1c1nnc(NC(=O)Cn2c(=O)oc3ccccc32)s1 (centres undefined) returned SmPrx2 inh >57 and LT uptake inh 1%.
For CCOc1ccccc1-c1nc(-c2cc3ccccc3nc2OC)no1 the results were SmPrx2 inh >57 and LT uptake inh -20%.
Screening CCCC[C@@H]1C[C@H]1C(NC(=O)c1ccc(C(F)(F)F)cc1)c1ccc(C(=O)OC)cc1 (some centres undefined) returned SmPrx2 inh >57 and LT uptake inh -20%.
For CC(=O)Nc1ccc(C)cc1 the results were LT uptake inh -20%.
CCOc1ccc(C(=O)C(c2ccccc2)N2CCOCC2)cc1 (centres undefined) was read as SmPrx2 inh >57 and LT uptake inh -13%.
`O=C(NC1CCS(=O)(=O)C1)c1cccc(S(=O)(=O)N2CCOCC2)c1` (centres undefined) gave SmPrx2 inh >57 and LT uptake inh 1%.
Screening Cc1nc2nc(-c3ccco3)nn2c(C)c1Cl returned SmPrx2 inh >57 and LT uptake inh 11%.
For CC(C)=C(C#N)c1nc2ccccc2s1 the results were SmPrx2 inh inconclusive and LT uptake inh -7%.
Screening COc1ccc(NC(=O)CSc2c(C)nn(-c3nnc(C)c(=O)[nH]3)c2C)cc1 returned SmPrx2 inh >57 and LT uptake inh 3%.
Screening COc1cccc(-c2cn3nc(C)c(C)nc3n2)c1 returned SmPrx2 inh >57 and LT uptake inh inconclusive.
Screening CCN(c1ccccc1)S(=O)(=O)c1ccc(F)cc1C returned SmPrx2 inh >57 and LT uptake inh -7%.
Screening CCN(CC)C(=O)c1cccc(-c2ccc(OC)cc2)c1 returned SmPrx2 inh >57 and LT uptake inh 0%.
Screening COc1ccc(Cl)cc1NC(=O)CN1CCC(n2nnc3ccccc32)CC1 returned SmPrx2 inh >57 and LT uptake inh -13%.
`Cc1cc(C)n(-c2ccc(C(=O)NCc3cccs3)cc2)n1` gave SmPrx2 inh >57 and LT uptake inh 4%.
Screening CCOc1ccc(C2c3c(oc4cc(C)c(C)cc4c3=O)C(=O)N2CCCN(C)C)cc1OC (centres undefined) returned SmPrx2 inh >57 and LT uptake inh -15%.
`C/C(Cl)=C\Cn1c(NCCc2ccccc2)nc2c1c(=O)n(C)c(=O)n2C` gave SmPrx2 inh >57 and LT uptake inh 5%.
CC1(C)CC(=O)c2cc(C(=O)NC3CCSC3=O)c(=O)n(-c3ccccc3)c2C1 (centres undefined) was read as SmPrx2 inh >57 and LT uptake inh -26%.
`COc1ccc(-n2c(N)c(C(=O)NCC3CCCO3)sc2=S)cc1` (centres undefined) gave SmPrx2 inh >57 and LT uptake inh 3%.
`COc1ccc(C2C(C(=O)O)c3ccccc3C(=O)N2C)cc1Br` (centres undefined) gave SmPrx2 inh >57 and LT uptake inh 4%.
Cc1cc(C)n(-c2ncc(-c3ccccc3)nn2)n1 was read as SmPrx2 inh >57 and LT uptake inh 5%.
O=S(=O)(c1ccc2nc(Cc3ccccc3)[nH]c2c1)N1CCOCC1 was read as SmPrx2 inh >57 and LT uptake inh -3%.
Screening CC(=NCCC1=CCCCC1)c1c(O)[nH]c(=O)[nH]c1=O returned SmPrx2 inh >57 and LT uptake inh inconclusive.
For CC(=O)c1sc(Nc2ccccn2)nc1C the results were SmPrx2 inh >57 and LT uptake inh inconclusive.
Screening CCC(C)N1C(=O)NC(=O)C2(Cc3cc(C)ccc3N(C)C2)C1=O (centres undefined) returned SmPrx2 inh >57 and LT uptake inh -18%.
Cc1ccc(S(=O)(=O)c2nc(-c3ccccc3)oc2NCCN2CCOCC2)cc1 was read as SmPrx2 inh >57 and LT uptake inh -2%.
Screening COc1cc2c(cc1OC)-c1cc(NCc3ccccn3)nc(=O)n1CC2 returned LT uptake inh -5%.
`CC(C)(C)n1nnnc1C(c1ccc(C#N)cc1)N1CCCC2(CCCCC2)C1` (centres undefined) gave SmPrx2 inh >57 and LT uptake inh -19%.
For CCCCCn1c(N2CCOCC2)nc2c1c(=O)n(CC(N)=O)c(=O)n2C the results were SmPrx2 inh >57 and LT uptake inh 4%.
C#CCCCO/N=C1/C[C@@H](O)[C@@H](O)[C@@H]2[C@@H]3C(=O)N(c4cccc(Oc5ccccc5)c4)C(=O)[C@H]3CC[C@H]12 was read as LT uptake inh -3%[1.6 µM].
For CCc1ccc(C2=Nn3c(nnc3-c3cccs3)SC2)cc1 the results were SmPrx2 inh >57 and LT uptake inh -17%.
Cc1ccc(NC(=O)CN(C)S(=O)(=O)c2cnc[nH]2)cc1C was read as SmPrx2 inh >57 and LT uptake inh 8%.
For CCN1CCC[C@@H]1CNC(=O)c1c(O)c(Cl)cc(Cl)c1OC the results were SmPrx2 inh >57 and LT uptake inh 5%.
Cc1ccc(N2C(=O)C3C4C=CC(C4)C3C2=O)cc1 (centres undefined) was read as SmPrx2 inh >57 and LT uptake inh -13%.
Screening O=C(Nc1ccccc1)N(Cc1cccnc1)Cc1ccco1 returned SmPrx2 inh >57 and LT uptake inh 5%.
Screening Cc1ccccc1-c1nnn(CC(=O)NCc2ccc3c(c2)OCO3)n1 returned SmPrx2 inh >57 and LT uptake inh -6%.
`Cc1nnc(SCC(=O)N2CCN(Cc3ccccc3)CC2)s1` gave SmPrx2 inh >57 and LT uptake inh -6%.
CC(C)(C)C1CCC2(CC1)CCN(CCCN1CCOCC1)CC2 was read as SmPrx2 inh >57 and LT uptake inh -19%[8 µM].
`CCCN1CCC[C@@H]2Cc3[nH]ncc3C[C@H]21` gave SmPrx2 inh >57&>57&>57&>57 and LT uptake inh -11%.
Cc1c(C(=O)Nc2ccc(C(=O)O)cc2)cnn1C was read as SmPrx2 inh >57 and LT uptake inh -11%.
`COc1ccc(Oc2ncc3nc(-c4cc(F)cc(F)c4)c(=O)n(C)c3n2)cc1` gave SmPrx2 inh >57 and LT uptake inh -20%.
For CC(=O)Nc1c(C(=O)c2ccc(F)cc2)oc2ccccc12 the results were SmPrx2 inh >57 and LT uptake inh 1%.
Cc1ccccc1-n1c(Cn2c(=O)sc3ccccc32)nnc1SC(C)C was read as SmPrx2 inh >57 and LT uptake inh -12%.
`O=C(c1csc2c1CCCC2)N1CCCCC1` gave SmPrx2 inh >57 and LT uptake inh -15%.
For Cc1ccc(S(=O)(=O)N(CC(=O)O)Cc2ccccc2)cc1 the results were SmPrx2 inh >57 and LT uptake inh 15%.
`Cc1ccc2cccc(OC(=O)N3CCCC3)c2n1` gave SmPrx2 inh >57 and LT uptake inh -2%.
`CCCCNC(=O)CCn1c(=O)c2ccccc2n(CC(=O)N2CC(C)CC(C)C2)c1=O` (centres undefined) gave SmPrx2 inh >57 and LT uptake inh -6%.
COc1cc2[nH]c3c(=O)n(CCN4CCCCC4)cnc3c2cc1OC was read as SmPrx2 inh >57 and LT uptake inh inconclusive.
Screening Cc1cc(C)nc(N2CCCC(C(=O)Nc3nnc(C)s3)C2)n1 (centres undefined) returned SmPrx2 inh >57 and LT uptake inh 2%.
Screening CCOc1ccccc1C(=O)NCC(=O)OCC(=O)NCCc1ccc(S(N)(=O)=O)cc1 returned SmPrx2 inh >57 and LT uptake inh 14%.
`Cc1oc(C)c2c(=O)ccc3c(c12)OC(N)=C(C#N)C3c1ccccc1` (centres undefined) gave SmPrx2 inh >57 and LT uptake inh -24%.
Screening NC[C@@H]1O[C@@H](O[C@H]2[C@H](O)[C@H](O[C@@H]3O[C@H](CO)[C@@H](O)[C@H](N)[C@@H]3O)[C@@H](N)C[C@H]2N)[C@H](N)C[C@@H]1O returned SmPrx2 inh >57 and LT uptake inh 6%[3.58 µM].
For Cc1cc(-n2c(C)cc(C(=O)CSc3ccc4c(c3)OCCO4)c2C)no1 the results were SmPrx2 inh >57 and LT uptake inh inconclusive.
For C=C(C)COc1ccc(-c2n[nH]c(C)c2Oc2ccccc2OC)c(O)c1 the results were SmPrx2 inh >57 and LT uptake inh 10µM*.
For CC(c1ccccc1)C1CC(=O)N(Cc2ccco2)C1=O (centres undefined) the results were SmPrx2 inh >57 and LT uptake inh inconclusive.
CNC(=O)CSCCn1c(SCC(=O)NC)nc2ccccc2c1=O was read as SmPrx2 inh >57 and LT uptake inh 4%.
Cc1nn(Cc2ccc(F)cc2)c(C)c1NC(=O)c1cnn2cccnc12 was read as SmPrx2 inh >57 and LT uptake inh -1%.
Screening Cc1cc2nc(C3CCN(CC4COc5ccccc5O4)CC3)[nH]c2cc1C (centres undefined) returned SmPrx2 inh >57 and LT uptake inh inconclusive.
`O=C(CSCc1ccccc1Cl)N1CCN(c2ccccn2)CC1` gave SmPrx2 inh >57 and LT uptake inh -5%.
`CCOc1nc(-c2ccc(OC)cc2)ccc1-c1noc(-c2ccncc2)n1` gave SmPrx2 inh >57 and LT uptake inh 9%.
Screening CCOC(=O)C(C)Oc1cccc2c(=O)n(CC(=O)Nc3ccc4c(c3)OCCO4)ccc12 (centres undefined) returned SmPrx2 inh >57 and LT uptake inh 20%.
`CCOC(=O)N1CCN(C(=O)c2ccccc2-c2ccccc2)CC1` gave SmPrx2 inh >57 and LT uptake inh inconclusive.
Screening Cc1ccc2nsnc2c1S(=O)(=O)NCc1ccc2c(c1)OCO2 returned SmPrx2 inh >57 and LT uptake inh 7%.
`COc1ccc(OC(C)C(=O)Nc2cccc(OC)c2)cc1` (centres undefined) gave LT uptake inh -9%.
`CC(C)n1c(N2CCN(C(=O)NCc3ccccc3)CC2)nc2ccccc21` gave SmPrx2 inh >57 and LT uptake inh -7%.
Screening Cc1nc2[nH]onc2c2nccc(=O)c12 returned SmPrx2 inh >57 and LT uptake inh inconclusive.
`CCOC(=O)CSc1nnc(-c2ccccc2OC)o1` gave SmPrx2 inh >57 and LT uptake inh inconclusive.
For Cc1nc2ccc(F)cc2cc1C(=O)NC(C)C the results were SmPrx2 inh >57 and LT uptake inh 10%.
OCCN(Cc1ccccc1)Cc1ccccc1F was read as SmPrx2 inh >57.

Screening results from PubChem.
